NOMO-1 viab = NOMO-1 AML cell viability reduction, primary screen, STK33 inhibitor project, CellTiter-Glo luminescence | AID 2330, 2010 | 37,000 tested, 7.5% active | NOMO-1 AML viability, 72 h | inhibition, % (test concentration not listed);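 active = most replicates above 80%; inconclusive = exactly half above 80%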;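 also: wells of about 30 µL received 25 nL stock; 0% = median of vehicle wells and 100% = reference inhibitor level; the first replicate is given; inactives centre near 10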
* = called active by the depositor; ? = inconclusive.

canonical_smiles,NOMO-1 viab
C[C@@H]1CN([C@H](C)CO)C(=O)c2cc(NS(=O)(=O)c3cn(C)cn3)ccc2O[C@H]1CN(C)Cc1ccccc1,6
C[C@H](CO)N1C[C@H](C)[C@H](CN(C)Cc2ccc3c(c2)OCO3)Oc2c(NS(=O)(=O)c3ccc(F)cc3)cccc2C1=O,11
COc1cc(C(C)=O)cc(OC)c1O,35
C[C@@H]1CN([C@@H](C)CO)C(=O)Cc2cc(NC(=O)Nc3ccc(F)cc3)ccc2O[C@@H]1CN(C)C(=O)Nc1ccc2c(c1)OCO2,-2
CNC[C@H]1Oc2ccc(NC(=O)CCC(F)(F)F)cc2C(=O)N([C@@H](C)CO)C[C@@H]1C,-7
CNC[C@H]1Oc2ccc(NC(=O)Nc3cccc4ccccc34)cc2CC(=O)N([C@H](C)CO)C[C@H]1C,28
COc1ccc(-n2c(SCC(N)=O)nnc2-c2cccnc2)cc1,14
CC(C)NC(=O)Nc1ccc2c(c1)C(=O)N([C@H](C)CO)C[C@H](C)[C@@H](CN(C)C(=O)Nc1ccc3c(c1)OCO3)OCCCC[C@@H](C)O2,-14
C[C@@H]1CN([C@@H](C)CO)C(=O)c2cccc(NS(=O)(=O)c3ccc(Cl)cc3)c2O[C@@H]1CN(C)Cc1ccc(Cl)c(Cl)c1,15
Cc1c(Cl)c(O)c(Cl)c(C)c1N(S(=O)(=O)c1ccccc1)S(=O)(=O)c1ccccc1,14
C[C@@H]1CN([C@@H](C)CO)C(=O)c2cc(NC(=O)CCN3CCOCC3)ccc2O[C@@H]1CN(C)Cc1ccc(Oc2ccccc2)cc1,39
COc1ccc([N+](=O)[O-])cc1N(CC(=O)Nc1cc(Cl)ccc1Cl)S(C)(=O)=O,-6
CCc1cccc(C)c1NC(=O)CSc1n[nH]c(-c2ccccc2Cl)n1,-4
COc1ccc(CN(C)C[C@H]2Oc3ccc(NC(=O)Nc4ccc(OC)cc4)cc3C(=O)N([C@@H](C)CO)C[C@H]2C)cc1,29
COc1cc2nc3occc3c(OC)c2cc1OCC(O)C(C)(C)O (stereo unspecified),11
Cc1ccccc1C(=O)Nc1ccc2nc(SCC(=O)Nc3ccc([N+](=O)[O-])cc3)sc2c1,?
CC(C)NC(=O)N(C)C[C@@H]1Oc2ccc(NC(=O)NC3CCCCC3)cc2C(=O)N([C@@H](C)CO)C[C@@H]1C,20
CC(C)NC(=O)Nc1cccc2c1O[C@@H](CN(C)Cc1ccc(Oc3ccccc3)cc1)[C@H](C)CN([C@H](C)CO)C2=O,71
Cc1ccc(N(C(C)C(=O)Nc2cccc(C(F)(F)F)c2)S(C)(=O)=O)cc1 (stereo unspecified),20
C=C1CC[C@H]2[C@](C)(CCC[C@]2(C)C(=O)OC)[C@H]1CC/C(C)=C/C(=O)O,5
CC(=O)c1cccc(NC(=O)CCN2C(=O)c3ccccc3C2=O)c1,6
C[C@@H]1CCCCO[C@H](CN(C)C(=O)Nc2ccc3c(c2)OCO3)[C@@H](C)CN([C@H](C)CO)C(=O)c2cc(N(C)C)ccc2O1,12
C[C@@H]1CCCCO[C@@H](CN(C)C(=O)Nc2ccc(F)cc2)[C@@H](C)CN([C@H](C)CO)C(=O)c2cc(NC(=O)NC3CCCCC3)ccc2O1,39
Cc1cc([N+](=O)[O-])nn1CC(=O)NCc1ccccc1,5
Cc1ccc(S(=O)(=O)N(C)C[C@@H]2Oc3c(NC(=O)CCCCCC(=O)Nc4ccccc4N)cccc3C(=O)N([C@@H](C)CO)C[C@H]2C)cc1,67
Cc1noc(C)c1S(=O)(=O)N(C)C[C@@H]1Oc2ccc(NS(=O)(=O)c3cccs3)cc2C(=O)N([C@H](C)CO)C[C@@H]1C,26
CCc1ccc(N(CC(=O)NC)S(C)(=O)=O)cc1,8
C[C@@H]1CN([C@H](C)CO)C(=O)c2cc(NC(=O)Nc3ccccc3)ccc2O[C@H]1CN(C)CC1CCCCC1,24
COc1ccc(CN(C)C[C@H]2Oc3ccc(NS(=O)(=O)c4ccccc4)cc3C(=O)N([C@@H](C)CO)C[C@@H]2C)cc1,11
C[C@@H]1CN([C@@H](C)CO)C(=O)c2cc(NS(=O)(=O)c3cn(C)cn3)ccc2O[C@H]1CN(C)S(=O)(=O)c1cccs1,0
Cc1cc(OCC(=O)Nc2ccc(O)c(-c3nc4ccccc4s3)c2)ccc1Cl,56
c1cnc(SCCCCOc2ccc3c(c2)CCC3)nc1,35
COc1ccc(C)cc1NC(=O)CS(=O)(=O)c1ccccc1,31
O=C(COc1ccccc1)Nc1ncc2c(n1)CCCC2=O,6
C[C@H](CO)N1C[C@H](C)[C@@H](CN(C)Cc2ccc(C(F)(F)F)cc2)Oc2ccc(NC(=O)C3CC3)cc2C1=O,2
C[C@H](CO)N1C[C@H](C)[C@H](CN(C)Cc2ccc3c(c2)OCO3)Oc2ccc(NC(=O)Nc3ccc(F)cc3)cc2C1=O,89*
CC(C)NC(=O)N(C)C[C@H]1Oc2ccc(N(C)C)cc2C(=O)N([C@H](C)CO)C[C@H]1C,13
COc1ccc(S(=O)(=O)N(C)C[C@@H]2Oc3c(NS(=O)(=O)c4ccccc4)cccc3C(=O)N([C@H](C)CO)C[C@H]2C)cc1,17
NC(=O)c1c(NC(=O)C2CC(=O)N(c3ccc(Cl)cc3)C2)sc2c1CCCC2 (stereo unspecified),10
Cc1noc(C)c1S(=O)(=O)Nc1ccc2c(c1)CC(=O)N([C@@H](C)CO)C[C@@H](C)[C@@H](CN(C)C(=O)NC1CCCCC1)O2,-1
C[C@H]1CN([C@@H](C)CO)C(=O)c2cc(NC(=O)Cc3ccccc3)ccc2O[C@@H]1CN(C)S(C)(=O)=O,3
C[C@H](CO)N1C[C@H](C)[C@H](CN(C)S(=O)(=O)c2ccc(Cl)cc2)Oc2ccc(NS(C)(=O)=O)cc2C1=O,-7
C[C@@H]1CCCCO[C@@H](CN(C)C(=O)Nc2ccccc2)[C@@H](C)CN([C@H](C)CO)C(=O)c2cc(NC(=O)c3ccncc3)ccc2O1,-17
Cc1ccc(S(=O)(=O)Nc2ccc3c(c2)C(=O)N([C@H](C)CO)C[C@H](C)[C@@H](CN(C)CC2CC2)O3)cc1,-1
Cc1[nH]c(=O)[nH]c(=O)c1NS(=O)(=O)c1ccc2c(c1)CCCC2,21
C[C@H](CO)N1C[C@H](C)[C@@H](CN(C)C)Oc2ccc(NC(=O)Nc3ccccc3)cc2C1=O,0
COc1ccc(S(=O)(=O)Nc2ccc3c(c2)C(=O)N([C@H](C)CO)C[C@H](C)[C@@H](CN(C)C(=O)CCCN(C)C)OCCCC[C@@H](C)O3)cc1,-4
C[C@H](CO)N1C[C@H](C)[C@@H](CN(C)C(=O)Nc2ccc(C(F)(F)F)cc2)Oc2c(NS(=O)(=O)c3ccc(Cl)cc3)cccc2C1=O,20

Other results:
| Compound | NOMO-1 viab |
| --- | --- |
| C[C@H]1CN([C@@H](C)CO)C(=O)c2cc(NS(=O)(=O)c3cccs3)ccc2O[C@@H]1CN(C)Cc1ccc(C(=O)O)cc1 | 4 |
| Cc1ccc(S(=O)(=O)Nc2ccc3c(c2)C(=O)N([C@@H](C)CO)C[C@H](C)[C@@H](CN(C)C(=O)Nc2ccc(F)cc2)O3)cc1 | -5 |
| C[C@@H]1CN([C@@H](C)CO)C(=O)c2cc(NC(=O)Cc3cn(C)c4ccccc34)ccc2O[C@@H]1CN(C)Cc1ccc(C(F)(F)F)cc1 | 106* |
| C[C@@H]1O[C@@H](O[C@@H]2[C@@H](O)[C@H](O[C@@H]3[C@@H](O)[C@H](C)O[C@@H](O[C@H]4[C@H](O[C@H]5CC[C@@]6(C)C(CC[C@]7(C)C6CC=C6[C@@H]8CC(C)(C)CC[C@]8(C(=O)O)CC[C@]67C)[C@]5(C)CO)OC[C@H](O)[C@@H]4O)[C@@H]3O)O[C@H](CO)[C@H]2O[C@@H]2O[C@H](CO)[C@@H](O[C@@H]3OC[C@@H](O)[C@H](O)[C@H]3O)[C@H](O)[C@H]2O)[C@H](O)[C@H](O)[C@H]1O (stereo partly specified) | 114* |
| C[C@@H]1CCCCO[C@H](CN(C)Cc2ccc(C(F)(F)F)cc2)[C@@H](C)CN([C@H](C)CO)C(=O)c2cc(NS(=O)(=O)c3ccc(Cl)cc3)ccc2O1 | 82* |
| C[C@@H]1CCCCO[C@H](CN(C)C(=O)CCC(F)(F)F)[C@@H](C)CN([C@H](C)CO)C(=O)c2cc(NS(=O)(=O)c3ccc(Cl)cc3)ccc2O1 | 0 |
| CCNS(=O)(=O)c1ccc(-c2oc3cc(S(=O)(=O)NCC)ccc3c2Cl)cc1 | 50 |
| C[C@H]1CN([C@@H](C)CO)C(=O)c2cccc(NC(=O)c3nc4ccccc4s3)c2O[C@H]1CN(C)CC1CCCCC1 | 50 |
| COc1ccc(-c2nnc(SCC(=O)Nc3cccc(SC)c3)o2)cc1 | 3 |
| CCN(CC(=O)O)S(=O)(=O)c1ccc2ccccc2c1 | -20 |
| C[C@H](CO)N1C[C@H](C)[C@H](CN(C)Cc2ccc(C(F)(F)F)cc2)Oc2ccc(NC(=O)CCN3CCOCC3)cc2CC1=O | 6 |
| C[C@H](CO)N1C[C@H](C)[C@@H](CN(C)Cc2ccc(C(=O)O)cc2)Oc2c(cccc2N(C)C)C1=O | 3 |
| CCOC(=O)CSc1nc2ccc(I)cc2c(=O)n1-c1ccccc1OC | 36 |
| CC(C)NC(=O)N(C)C[C@@H]1Oc2c(NC(=O)c3ccc(-c4nccs4)cc3)cccc2C(=O)N([C@H](C)CO)C[C@H]1C | -2 |
| COc1ccc(-c2nc(SCC(=O)Nc3c(F)cc(F)cc3Br)n[nH]2)cc1 | 16 |
| C[C@H]1CN([C@@H](C)CO)C(=O)c2cc(NC(=O)C3CC3)ccc2O[C@H]1CN(C)Cc1ccncc1 | -9 |
| N#CCCn1c(CC(N)=O)nc2ccccc21 | 8 |
| CCOC(=O)c1cc(NC(=O)CSc2nnc(C)s2)ccc1Cl | 12 |
| NC(=O)COc1ccc(NC(=O)c2cccnc2)cc1 | 14 |
| C[C@H]1CN([C@@H](C)CO)C(=O)Cc2cc(NC(=O)Nc3ccc(F)cc3)ccc2O[C@@H]1CN(C)Cc1ccc(-c2ccccc2)cc1 | 106* |
| Cc1cc2c(=O)n(Cc3ccco3)c(SCC(=O)c3cc4ccccc4o3)nc2s1 | 26 |
| C[C@@H]1CN([C@@H](C)CO)C(=O)c2cc(NC(=O)Cn3cnnn3)ccc2O[C@H]1CN(C)Cc1ccc(-c2ccccc2)cc1 | 32 |
| COc1ccc(S(=O)(=O)N(C)C[C@H]2Oc3ccc(NC(=O)Nc4ccc(C(F)(F)F)cc4)cc3C(=O)N([C@H](C)CO)C[C@@H]2C)cc1 | 45 |
| O=C(c1cn(-c2ccccc2)nc1-c1cc2ccccc2oc1=O)n1nnc2ccccc21 | 29 |
| COc1cc(OC)nc(NC(=O)CSc2nc3ccccc3o2)n1 | 19 |
| C[C@@H]1CN([C@@H](C)CO)C(=O)c2cccc(NC(=O)C3CCCCC3)c2O[C@@H]1CN(C)C(=O)Nc1cccc2ccccc12 | 13 |
| CCN(CC(=O)Nc1cccc([N+](=O)[O-])c1)S(=O)(=O)c1ccc(C)cc1 | 3 |
| CCCC(=O)N(Cc1cc2cccc(C)c2[nH]c1=O)c1ccc(C)cc1 | 13 |
| CC(C)NC(=O)N(C)C[C@@H]1Oc2c(NS(=O)(=O)c3ccc(F)cc3)cccc2C(=O)N([C@@H](C)CO)C[C@@H]1C | -1 |
| Cc1ccc(Nc2ccc3noc4c3c2C(=O)c2ccccc2-4)cc1 | 127* |
| Cc1ccc(NC(=O)COc2ccc3ccccc3c2Br)c([N+](=O)[O-])c1 | -2 |
| COc1ccc(CN(C)C[C@H]2Oc3c(NC(=O)c4ccc(-c5nccs5)cc4)cccc3C(=O)N([C@@H](C)CO)C[C@H]2C)cc1 | -13 |
| O=C(/C=C/c1ccc(O)cc1)OC[C@H]1O[C@@H](Oc2cc(O)c3c(c2)OC(c2ccc(O)cc2)CC3=O)[C@H](O)[C@@H](OC(=O)/C=C/c2ccc(O)cc2)[C@@H]1O (stereo partly specified) | 120* |
| C[C@@H]1CN([C@H](C)CO)C(=O)c2cc(N(C)C)ccc2O[C@H]1CN(C)Cc1ccc(C(=O)O)cc1 | 0 |
| C[C@@H]1CN([C@@H](C)CO)C(=O)c2cc(NC(=O)Nc3cccc4ccccc34)ccc2O[C@H]1CN(C)Cc1ccc(Cl)c(Cl)c1 | 94* |
| C[C@H](CO)N1C[C@H](C)[C@H](CN(C)Cc2ccc3c(c2)OCO3)Oc2ccc(NC(=O)NC3CCCCC3)cc2C1=O | 94* |
| Cc1noc(C)c1S(=O)(=O)Nc1ccc2c(c1)CC(=O)N([C@H](C)CO)C[C@H](C)[C@H](CN(C)CC1CC1)O2 | 28 |
| Cc1ccc(S(=O)(=O)N(C)C[C@H]2Oc3ccc(NC(=O)Nc4cccc5ccccc45)cc3C(=O)N([C@H](C)CO)C[C@H]2C)cc1 | 3 |
| C[C@@H]1CN([C@@H](C)CO)C(=O)Cc2cc(NC(=O)Nc3ccccc3)ccc2O[C@@H]1CN(C)CC1CC1 | 5 |
| CN(C)C=NC(=O)c1sc(S(C)(=O)=O)c2c1CCC=C2 | 39 |

Structures above containing a thiophene ring, fused or not:
| Compound | NOMO-1 viab |
| --- | --- |
| Cc1noc(C)c1S(=O)(=O)N(C)C[C@@H]1Oc2ccc(NS(=O)(=O)c3cccs3)cc2C(=O)N([C@H](C)CO)C[C@@H]1C | 26 |
| C[C@@H]1CN([C@@H](C)CO)C(=O)c2cc(NS(=O)(=O)c3cn(C)cn3)ccc2O[C@H]1CN(C)S(=O)(=O)c1cccs1 | 0 |
| NC(=O)c1c(NC(=O)C2CC(=O)N(c3ccc(Cl)cc3)C2)sc2c1CCCC2 (stereo unspecified) | 10 |
| C[C@H]1CN([C@@H](C)CO)C(=O)c2cc(NS(=O)(=O)c3cccs3)ccc2O[C@@H]1CN(C)Cc1ccc(C(=O)O)cc1 | 4 |
| Cc1cc2c(=O)n(Cc3ccco3)c(SCC(=O)c3cc4ccccc4o3)nc2s1 | 26 |
| CN(C)C=NC(=O)c1sc(S(C)(=O)=O)c2c1CCC=C2 | 39 |

A portion of the library; rates above refer to the full screens.
